Mtb H37Rv – Mycobacterium tuberculosis H37Rv growth inhibition, cell based, confirmatory dose response (AID 1949) | inhibition, % at 10 µg/mL, or IC50 in µg/mL where a hit was titrated | M. tuberculosis H37Rv growth inhibition | 100,000 tested, 1.6% active | most inactive calls were filed without a number and no value below 0 was filed;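 active means confirmed in a dose series; inconclusive means about 50% or more but not retested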;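 further: bacteria grown 7 days with compound before Alamar blue readout; 0% = untreated bacteria and 100% = reference antibiotic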
Starred values were filed as active, the others as inactive; i = inactive; ? = inconclusive. An excerpt. The share of hits here may be higher or lower than overall.

Start of the listing, in advance (two entries):
SMILES	Mtb H37Rv
Cc1ccc(-c2nnc(SCC(=O)NC3CCCCC3)n2C)c(Cl)c1	i
O=C(C1CCN(Cc2ccccc2Cl)CC1)N1CCN(c2ccccc2F)CC1	2.1%

All compounds of this part, from the first entry:
SMILES	Mtb H37Rv
Cc1ccc(-c2nnc(SCC(=O)NC3CCCCC3)n2C)c(Cl)c1	i
O=C(C1CCN(Cc2ccccc2Cl)CC1)N1CCN(c2ccccc2F)CC1	2.1%
CS(=O)(=O)N(CC(=O)Nc1ccc2c(c1)OCCO2)c1cccc(F)c1	i
Cc1ccc(OC(=O)c2ccc3nc(C)sc3c2)cc1	i
O=C(CCC(=O)OCC(=O)c1ccccc1)Nc1cccc2cccnc12	i
Cc1ccc(S(=O)(=O)NC(=O)c2ccccc2O)cc1	i
O=C(c1ccc(COc2ccccc2Cl)o1)N1CCCCCC1	i
COc1cc(C(=O)N2CCOCC2)cc(Br)c1OC	i
COc1ccc(-n2c(CCC(=O)O)ccc2-c2ccccc2)cc1	i
CC(C)C(=O)Nc1cc(NC(=O)C(C)C)cc(C(=O)O)c1	1.7%
CCc1ccc2oc(-c3ccc(C)c(C(=O)Nc4ccccc4)c3)nc2c1	i
O=C(COc1cc(Cl)ccc1Cl)Nc1nccs1	i
Cc1ccc(NC(=O)CSc2ncccn2)cc1C	i
CCNC(=S)Nc1ccc(Cc2ccncc2)cc1	i
Cc1ccc(S(=O)(=O)N(C)c2ccccc2C(=O)N2CCN(c3cccc(Cl)c3)CC2)cc1	i
COc1ccc(-c2noc(C(C)Oc3ccc(Cl)cc3Cl)n2)cc1OC (stereo not drawn)	9.2%
O=C(Nc1c(-c2ccccc2)nc2ccc(Cl)cn12)c1ccco1	i
COc1ccc(C(=O)N2CCC(C(=O)Nc3ccc(F)cc3F)CC2)cc1OC	i
CCOc1ccc(NC(=O)c2ccc(S(=O)(=O)N3CCCCC3)cc2)cc1	i
CCCCC(=O)Nc1cccc(NC(=S)NC(=O)c2ccccc2)c1	2.6%
Cc1ccc2oc(-c3cccc(NC(=O)Cc4cccs4)c3)nc2c1	i
CCOC(=O)CCc1c(C)c2ccc(OCC(=O)Nc3cc(C)cc(C)c3)c(C)c2oc1=O	i
S=C(NCCc1ccc(Cl)cc1)NC1CC1	2.3%
CCc1cc(C(=O)OC)c(NC(=O)C2CC(=O)NN2Cc2ccccc2)s1 (stereo not drawn)	4.6%
Cc1nnc(NC(=O)CSc2nnc(Cc3ccccc3)n2Cc2ccccc2)s1	i
Later entries.
SMILES	Mtb H37Rv
COc1ccc(Cl)cc1N(CC(=O)Nc1ccc(S(=O)(=O)N2CCCCC2)cc1)S(C)(=O)=O	i
CCCCNC(=O)Nc1ccc(C23CC4CC(CC(C4)C2)C3)cc1C	i
CCC(=O)NC(=S)Nc1ccc(Cl)cn1	i
O=C1C2c3ccccc3CCN2C(=O)CN1CCc1ccccc1 (stereo not drawn)	i
CC1CC(C)CN(CCOc2ccc(Cl)cc2Cl)C1 (stereo not drawn)	i
O=C1NN(c2cccc(Cl)c2)C(=O)/C1=C\c1ccc(OC(=O)c2cccs2)cc1	i
Cc1ccc(CCNC(=O)Nc2cccc(C)c2)cc1	i
CCN(CC)CC#CC(CC)(CC)OC(C)=O	i
CCn1c(SCC(=O)NCc2ccccc2)nnc1-c1ccc(Cl)cc1	i
CC(C)N(Cc1nc(-c2ccccc2)no1)S(=O)(=O)c1ccc(Br)cc1	3.8%
Cc1ccc(N(CC(=O)Nc2cccc(N(C)S(C)(=O)=O)c2)S(C)(=O)=O)cc1	i
Cc1ccc(C(=O)N2CCCCCC2)cc1Br	2.9%
COc1cc(S(=O)(=O)NC(C)c2ccccc2)ccc1F (stereo not drawn)	i
Cc1ccccc1OCc1nnc(SCc2ccc([N+](=O)[O-])cc2)n1C	4.8%
CCOC(=O)c1ccc(N(C)S(=O)(=O)c2ccc(Cl)cc2)cc1	i
Cc1onc(-c2ccccc2)c1C(=O)NC(C)(C)CC(C)(C)C	i
Cn1c(N)c(C#N)c2c(c1=S)COC(C)(C)C2	i
CCOc1ccccc1N1CCN(C(=O)c2cc(-c3ccc(C)s3)nc3ccccc23)CC1	i
Cn1c(SCc2ccc(C#N)cc2Cl)nc2ccccc21	7.1%
CC1=C(C(=O)Nc2ccccc2C)C(c2cccc(F)c2)n2nc(CCCO)nc2N1 (stereo not drawn)	3.2%
O=C(C1=C(O)C(=O)N(Cc2cccnc2)C1c1ccc(Cl)cc1)c1cccs1 (stereo not drawn)	i
CC1CCN(CCCCOc2ccc(Br)cc2)CC1	0.3%
CNC(=S)Nc1ccc(Br)cc1	i
CCc1ccccc1NC(=O)c1cc2cc([N+](=O)[O-])cc(OC)c2oc1=O	i
Cc1c(Cl)cccc1NC(=O)CSc1ccccc1N	i
(continued)
SMILES	Mtb H37Rv
COC(=O)c1cc(NC(=O)CCSc2ccccc2)ccc1Cl	i
CCOC(=O)c1c(-c2ccc(C)c(C)c2)csc1NC(=O)c1cccnc1	i
NC(=O)COc1cc2oc(=O)c3c(c2cc1Cl)CCCC3	i
O=C(COc1cccc(NC(=O)c2ccc(Br)cc2)c1)c1ccc(F)cc1	i
O=C(NCCc1ccc(Cl)cc1)c1ccc(C(F)(F)F)cc1	3.2%
COc1cccc(C2c3c(oc4ccc(C)cc4c3=O)C(=O)N2Cc2ccc(F)cc2)c1 (stereo not drawn)	i
O=C(NCc1ccc(Cl)c(Cl)c1)C(c1ccccc1)c1ccccc1	i
COc1ccccc1NC(=O)CC1C(=O)N(c2ccccc2)C(=S)N1Cc1ccccc1Cl (stereo not drawn)	i
COc1ccc(C(=O)O)cc1NC(=S)NC(=O)c1ccc(Cl)c(Cl)c1	i
CC(C)(C)CC(=O)N1CCC(C(N)=O)CC1	i
Cc1nnc(SCC(=O)Nc2ccc(Br)cc2F)s1	i
CCOCC(=O)N1CCCC(C(=O)OCC)C1 (stereo not drawn)	i
Cc1sc2nc(CCCN3C(=O)c4cccc5cccc(c45)C3=O)n(CCO)c(=O)c2c1C	i
O=C(CSCc1cccc(Cl)c1)Nc1cccc(C(F)(F)F)c1	49.0%
O=c1c2ccccc2n(Cc2ccccc2F)c(=O)n1Cc1ccccc1F	i
O=C(c1ccccc1O)N1CCN(C(c2ccccc2)c2ccc(Cl)cc2)CC1 (stereo not drawn)	1.7%
COc1ccc(Br)cc1CN1CCCC(C(=O)N(C)Cc2ccccc2)C1 (stereo not drawn)	i
COc1ccc2c(c1)C(OC(C)=O)C(C)(C)C(c1cccs1)N2 (stereo not drawn)	i
COc1ccc(Oc2coc3cc(OC(=O)CC(C)(C)C)ccc3c2=O)cc1	i
COc1ccc(C(=O)NCCc2nc3ccccc3[nH]2)cc1	i
CCCC(=O)Nc1nc(-c2ccccc2)c(CC)s1	i
C=CCn1c(NC(=O)c2ccccc2Cl)c(C(=O)OCC)sc1=S	i
N=C(c1cccc([N+](=O)[O-])c1)N1CCCCCC1	i
Cc1cc(Cl)cc(C)c1OCCCOc1ncnc2ccccc12	3.4%
COC(=O)Cc1c(C)c2ccc(OC(C)C(=O)c3ccccc3)cc2oc1=O (stereo not drawn)	i
Additional results follow.
SMILES	Mtb H37Rv
O=C(COc1ccc2oc3c(c2c1)CCCC3)Nc1cccc2cccnc12	5.1%
Cc1ccc(S(=O)(=O)NC(C)C(=O)N2CCc3ccccc3C2)cc1 (stereo not drawn)	i
COc1ccc(NS(=O)(=O)c2ccc(Cl)s2)cc1	i
CN(Cc1ccccc1)S(=O)(=O)c1ccc(OCC(=O)NCCc2ccccc2)cc1	0.1%
COc1ccc(N2CCN(c3nc(OC)nc(OC)n3)CC2)cc1	2.9%
O=C(O)c1ccc(CN2CCC(Cc3ccccc3)CC2)cc1	i
Cc1c(C(=O)Nc2nc(-c3cccc4ccccc34)cs2)cccc1[N+](=O)[O-]	i
CCC(C)NC(=O)COc1c(C)cccc1C (stereo not drawn)	i
CC(=O)N(C)c1ccc(NC(=O)Cc2cccs2)cc1	i
CCc1cc(=O)oc2cc(C)cc(OCc3ccccc3Br)c12	i
CCOC(=O)C1SC2(C(F)(F)C(F)F)CC1(O)c1c(c(OC)c3occc3c1OC)O2 (stereo not drawn)	37.2%
O=C1c2ccccc2S(=O)(=O)N1CCCCOc1ccc(Cl)cc1	i
COC(=O)c1c(NC(=S)Nc2cccc(NC(C)=O)c2)sc(C(=O)N(C)C)c1C	i
O=S(=O)(Nc1ccc(F)cc1)c1ccc(Cl)c(Cl)c1	i
O=C(Nc1nc(-c2ccc(F)cc2)cs1)c1ccc(Br)o1	i
CC1(C)CC(=O)C2=C(C1)OC(c1ccc(Cl)cc1)C(C#N)=C2N (stereo not drawn)	i
CC1CN(CCCCOc2ccc(Cl)cc2Br)CC(C)O1 (stereo not drawn)	0.4%
O=C(Nc1ccc(S(=O)(=O)NCCc2ccccc2)cc1)c1ccco1	i
COc1cccc(C2C(C(=O)c3sc(C)nc3C)=C(O)C(=O)N2CCCN2CCOCC2)c1OC (stereo not drawn)	i
Cc1cc(OC(C)C(=O)Nc2nc3ccc(S(C)(=O)=O)cc3s2)cc(C)c1Cl (stereo not drawn)	i
CCNC(=S)N1CCN(CC(=O)Nc2ccc(OC)cc2)CC1	i
CN1CCC2(CCN(Cc3ccccc3)C2)C1 (stereo not drawn)	i
COc1cccc(C2NC(=S)NC(C)=C2C(=O)Nc2ccc(C)cc2C)c1OC (stereo not drawn)	i
COC(=O)c1c(NC(=O)C2CCCCC2C(=O)O)sc2c1CCCC2 (stereo not drawn)	i
COc1cccc(OC)c1C(=O)NC(=S)Nc1ccc(N2CCOCC2)c(Cl)c1	i

16 structures from above, sorted by length of the SMILES, descending:
SMILES	Mtb H37Rv
COc1cccc(C2C(C(=O)c3sc(C)nc3C)=C(O)C(=O)N2CCCN2CCOCC2)c1OC (stereo not drawn)	i
Cc1c(C(=O)Nc2nc(-c3cccc4ccccc34)cs2)cccc1[N+](=O)[O-]	i
CN(Cc1ccccc1)S(=O)(=O)c1ccc(OCC(=O)NCCc2ccccc2)cc1	0.1%
COc1cccc(C2NC(=S)NC(C)=C2C(=O)Nc2ccc(C)cc2C)c1OC (stereo not drawn)	i
CC1(C)CC(=O)C2=C(C1)OC(c1ccc(Cl)cc1)C(C#N)=C2N (stereo not drawn)	i
Cc1ccc(S(=O)(=O)NC(C)C(=O)N2CCc3ccccc3C2)cc1 (stereo not drawn)	i
O=C(Nc1ccc(S(=O)(=O)NCCc2ccccc2)cc1)c1ccco1	i
COC(=O)c1c(NC(=O)C2CCCCC2C(=O)O)sc2c1CCCC2 (stereo not drawn)	i
O=C1c2ccccc2S(=O)(=O)N1CCCCOc1ccc(Cl)cc1	i
O=C(Nc1nc(-c2ccc(F)cc2)cs1)c1ccc(Br)o1	i
CCNC(=S)N1CCN(CC(=O)Nc2ccc(OC)cc2)CC1	i
O=C(O)c1ccc(CN2CCC(Cc3ccccc3)CC2)cc1	i
CC(=O)N(C)c1ccc(NC(=O)Cc2cccs2)cc1	i
COc1ccc(NS(=O)(=O)c2ccc(Cl)s2)cc1	i
CN1CCC2(CCN(Cc3ccccc3)C2)C1 (stereo not drawn)	i
CCC(C)NC(=O)COc1c(C)cccc1C (stereo not drawn)	i

Going on with the list:
SMILES	Mtb H37Rv
COc1ccc(-c2[nH]nc3c2C(c2c(F)cccc2F)C(C#N)=C(N)O3)cc1 (stereo not drawn)	1.1%
COC(=O)c1ccc(C(=O)OC)c(Nc2ncnc(N)c2[N+](=O)[O-])c1	i
O=S1(=O)N=C(Nc2cccc(C(F)(F)F)c2)c2ccccc21	i
CCCOc1ccc(CC(=O)Nc2ccc(Br)cc2)cc1OC	i
O=C(Nc1ccc(Cl)cc1C(F)(F)F)c1ccc(Cl)cc1Cl	i
O=C(Nc1cccc(F)c1)C(=O)N1CCCCC1	i
CCCC(CCC)C(=O)Nc1cccc(-c2nnc(-c3ccccc3)o2)c1	i
Oc1ccccc1C1=Nn2c(nnc2-c2ccccc2)SC1	i
COc1ccc(C)cc1NC(=O)C(C)c1ccccc1 (stereo not drawn)	2.4%
CCc1ccccc1NC(=O)CSCc1cc(=O)[nH][nH]1	0.0%
O=C(Nc1cc(Cl)c(Cl)cc1Cl)c1ccccc1F	i
COc1ccc(-c2cc(C(F)F)n3ncc(C(=O)NCCCN4CCOCC4)c3n2)cc1	i
Cc1ccc(C(=O)n2nc(-c3cccnc3)nc2N)cc1	i
CC(=O)Oc1ccc(-c2nc(-c3cccnc3)no2)cc1	i
CCOc1ccc(C(F)(F)F)cc1NC(=O)c1ccco1	i
CCOC(=O)NC(=O)CSc1nc2ccccc2o1	i
COc1ccc([N+](=O)[O-])cc1NC(=O)c1cc(-c2ccccc2)nc2ccccc12	i
Cc1ccc(S(=O)(=O)N(C)c2ccc(C(=O)NCc3ccccn3)cc2)cc1	3.9%
CCCCC(=O)Nc1ccc(C(=O)NNC(=S)Nc2ccccc2)cc1	i
CCCCSc1nc(O)c(C(c2ccccc2)c2ccccc2)c(=O)[nH]1	i
Cc1ccc(/C(C#N)=C\c2ccc(N3CCOCC3)o2)cc1	?
COc1ccc(Cl)cc1N(CC(=O)NCCSCc1ccccc1)S(C)(=O)=O	i
Cc1c(Br)ccc(NS(=O)(=O)c2ccccc2)c1C	18.4%
O=S(=O)(Nc1ccc(Br)cc1)c1ccc(Cl)s1	3.4%
Cc1cc(C)nc(NC2=NCC(=O)N2c2ccc(Cl)cc2Cl)n1	i
Carrying on.
SMILES	Mtb H37Rv
O=c1c(Cl)c(N2CCOCC2)cnn1C12CC3CC(CC(C3)C1)C2	5.3%
CCOc1ccc(C2Sc3ccccc3NC3=C2C(=O)OC3)cc1 (stereo not drawn)	i
CC(=O)CC(=O)Nc1cccc(C(F)(F)F)c1	22.8%
COc1ccccc1-n1c(-c2ccco2)n[nH]c1=S	i
O=C(NC(=S)Nc1ccc(Br)cc1)C1CCCCC1	i
CC1=C(C(=O)Nc2cc(C)ccc2C)C(c2ccccc2Br)NC(=S)N1 (stereo not drawn)	i
N#Cc1cc2c(nc1SCc1ccncc1)CCC2	4.0%
O=C(c1ccc(Cl)cc1)c1ccc(OCC(O)CN2CCN(c3ccccc3F)CC2)cc1 (stereo not drawn)	6.5%
Nc1nc2n(n1)C(c1ccco1)CC(c1ccc(F)cc1)N2 (stereo not drawn)	i
CCc1ccccc1N1C(=O)c2cccc3c(N4CCOCC4)c([N+](=O)[O-])cc(c23)C1=O	?
COc1ccc(-c2cc(-c3ccc(F)cc3)nc(N3CCOCC3)n2)cc1	i

Source: PubChem
